Screening results from PubChem.
Ecoli growth = E. coli growth inhibition, primary screen, OD600; OD600 absorbance (no concentration beside the values); hit rate 0.21% among 330,000; Escherichia coli growth, 23 h; stronger effect = lower value;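 active means OD600 absorbance below the run mean of sample wells minus 3.6 SD, in any replicate, cut at about 0.56 in these data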;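 further: stock transfer was 300 nL into about 60 µL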
FGF22 binding = binders of human FGF22 protein, primary screen, FGF22 synaptogenesis inhibitor project, biophysical, thermal shift, single point | Fibroblast growth factor 22 (Homo sapiens), Q9HCT0 | recombinant FGF22 thermal shift, SYPRO orange fluorescence; percent of sucrose octasulfate shift, DMSO zero | calls only at 9.99 µM | hit rate 1.5% among 340,000 | AID 651658, 2012;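 active means melting point raised past a set limit in the mean and every replicate; inconclusive means no clear call; three in four hits are not shown here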
Target sequence (Q9HCT0 whole entry, looked up): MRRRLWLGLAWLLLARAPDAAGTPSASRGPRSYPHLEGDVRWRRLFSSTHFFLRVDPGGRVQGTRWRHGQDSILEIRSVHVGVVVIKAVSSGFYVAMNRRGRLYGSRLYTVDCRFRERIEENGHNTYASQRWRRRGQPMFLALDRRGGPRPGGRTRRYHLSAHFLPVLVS
AF4-AF9 inh = inhibitors of AF4 peptide binding to AF9, primary screen, biochemical, AlphaScreen, biotin-AF4 peptide, FLAG-AF9, single point; inhibition, % at 10 µM; Protein AF-9 (Homo sapiens), P42568; hit rate 0.47% among 350,000;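 active means every replicate reaching a set inhibition limit, whatever the replicate mean, cut at about 25% in these data; inconclusive means mean inhibition reaches that limit but some replicates miss it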;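 further: 0% = plate neutral control median and 100% = total signal loss; the record names both 10 and 1 µM as test concentration; the first replicate is given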
RanGTP-Impb inh = inhibitors of RanGTP-importin-beta interaction, primary screen, biochemical, FRET, CFP-Ran, YFP-importin-beta, homogeneous; Ran GTPase (GTP-bound) - importin-beta complex; cell-free CFP-Ran/YFP-importin-beta FRET ratio; inhibition, % (no concentration beside the values); hit rate 1.1% among 300,000;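 active means most replicates above 15%; inconclusive means exactly half above 15%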;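 further: 0% = DMSO wells and 100% = Ran loaded with GDP instead of GTP; wells of about 40 µL received 100 nL stock; the first replicate is given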
Vif TR-FRET = inhibitors of Vif binding to APOBEC3G peptide, primary screen, biochemical, TR-FRET, GST-Vif 1-94, biotin-A3G peptide, dose response retest (AID 1117319). hit rate 0.57% among 260,000. inhibition, %, or IC50 in µM where a hit was titrated. TR-FRET GST-Vif / biotin-A3G peptide binding; higher % means a stronger effect; test concentration not given here; strong numbers were not always called active. Virion infectivity factor (Human immunodeficiency virus type 1 group M subtype B (isolate …;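 active means above the screen mean plus three standard deviations and confirmed in dose response; inconclusive means results disagree or hit not tested in dose response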;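 further: Vif residues 1-94 fused to GST binding biotinylated APOBEC3G peptide 110-148; 0% = full assay without inhibitor and 100% = GST in place of GST-Vif; retest series ran down from 100 µM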
UCH37 inh = inhibitors of human UCH37 deubiquitinase, primary screen, biochemical, Ub-AMC cleavage, fluorescence. Ubiquitin carboxyl-terminal hydrolase isozyme L5 (Homo sapiens), Q9Y5K5. purified proteasome/UCH37. inhibition, % (test concentration not listed). hit rate 0.33% among 330,000. AID 588478, 2011;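 active means mean of two replicates above 20%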;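 further: 0% = compound-free wells with enzyme and 100% = wells lacking proteasome; stock transfer was 100 nL into about 20 µL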
Target sequence (Q9Y5K5 whole entry, looked up): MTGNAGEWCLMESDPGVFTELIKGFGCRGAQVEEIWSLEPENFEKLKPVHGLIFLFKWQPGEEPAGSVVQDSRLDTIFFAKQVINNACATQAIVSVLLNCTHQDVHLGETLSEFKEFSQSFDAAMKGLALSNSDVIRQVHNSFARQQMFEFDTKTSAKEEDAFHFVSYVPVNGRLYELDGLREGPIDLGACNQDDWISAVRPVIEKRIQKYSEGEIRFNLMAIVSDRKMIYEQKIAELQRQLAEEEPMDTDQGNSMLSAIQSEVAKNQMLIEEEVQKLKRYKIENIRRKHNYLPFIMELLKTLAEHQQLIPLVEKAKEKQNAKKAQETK
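Schedule: 30 min plus 25 min, room temperature / Material: human UCH37 within purified proteasomes / Technique: AMC fluorescence intensity at 355/460 nm / Buffer or medium: pH 7.4 Tris-HCl (50 mM) with ovalbumin, ATP-MgCl2, DTT / Controls: wells without proteasome as full block, compound-free enzyme plus substrate as uninhibited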
HNF4A DNA FP = change in binding of human HNF4A to DNA, primary screen, biochemical, fluorescence polarization, FITC-DNA; hit rate 0.3% among 360,000; Hepatocyte nuclear factor 4-alpha (Homo sapiens), P41235; AID 1224865, 2016; activity change, % at 10 µM; 1 h; in the data active means activity change above about 30%, passing the limit was not always enough;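 further: controls were the assay level and a saturating level of protein; the project sought stronger binding though the title names inhibitors; some compounds called inactive have numbers as strong as hits; positive values seem to mean higher polarization but the record does not say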
Target sequence (P41235 whole entry, looked up): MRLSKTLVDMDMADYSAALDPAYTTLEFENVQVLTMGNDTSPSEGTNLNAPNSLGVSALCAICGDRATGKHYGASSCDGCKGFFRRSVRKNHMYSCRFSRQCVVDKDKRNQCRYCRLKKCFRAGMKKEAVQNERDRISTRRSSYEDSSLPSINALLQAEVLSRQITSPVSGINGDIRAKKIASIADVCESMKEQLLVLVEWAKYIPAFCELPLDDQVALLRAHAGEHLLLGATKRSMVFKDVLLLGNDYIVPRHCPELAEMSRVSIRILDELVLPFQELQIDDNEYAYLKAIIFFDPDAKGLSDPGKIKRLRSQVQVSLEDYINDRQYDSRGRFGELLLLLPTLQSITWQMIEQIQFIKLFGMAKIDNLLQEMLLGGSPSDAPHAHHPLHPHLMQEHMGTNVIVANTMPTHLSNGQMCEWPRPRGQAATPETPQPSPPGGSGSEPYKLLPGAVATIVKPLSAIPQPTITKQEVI
* = called active by the depositor; i = inactive; ? = inconclusive; · = no result given.

SMILES	Ecoli growth	FGF22 binding	AF4-AF9 inh	RanGTP-Impb inh	Vif TR-FRET	UCH37 inh	HNF4A DNA FP
CCCc1cc(=O)oc2cc(OCC(=O)Nc3ccc4c(c3)OCCO4)ccc12	0.73	·	·	-1.9	18%	-3.6	-1.6
COc1cc(S(=O)(=O)NCc2ccccn2)c(OC)cc1Cl	0.69	·	·	-1.8	-8%	1.5	-0.3
COc1ccccc1N1CCN(C(=O)c2ccc([N+](=O)[O-])s2)CC1	0.65	i	5.5	3.6	·	4.1	0.2
C=CCNc1ncnc2c1ncn2[C@H]1CN(CCN2CCOCC2)C[C@@H](CO)O1	·	i	-6.6	·	·	·	-0.5
Cc1cccc(NC(=O)/C(C#N)=C/c2ccc(Cl)cc2)n1	0.68	i	-2.0	?	-13%	-1.3	1.9
O=C(Cn1nc(C(=O)O)c2ccccc2c1=O)Nc1ccccc1C(F)(F)F	0.69	i	-2.7	-2.1	·	4.0	-1.9
CN(C)C(CNC(=O)C1CCCN(C(=O)c2ccc(Cl)cc2)C1)c1ccco1 (stereo unspecified)	0.68	·	·	·	25%	1.1	3.3
COc1ccccc1OCC(=O)NCC1CCCCC1	0.7	·	·	-0.1	-5%	3.9	1.3
COc1ccccc1C(=O)NCC(=O)N1CC=C(c2ccccc2)CC1	0.71	i	-14	·	-2%	-0.8	4.6
O=C(N/N=C/c1cccnc1)c1ccc(NC(=O)c2ccc(Cl)cc2)cc1	·	i	7.2	0.3	·	·	17
CCCN(CCC)C(=O)CSc1nc2ccsc2c(=O)n1NC(=O)c1ccccc1	0.65	·	·	0.0	1%	0.2	0.8
Cn1c(C(=O)O)c(S(=O)(=O)c2ccc(Cl)cc2)c2ccccc21	0.69	i	0.4	4.6	-5%	3.3	2.0

Of the compounds above, 6 have a halogen:
SMILES	Ecoli growth	FGF22 binding	AF4-AF9 inh	RanGTP-Impb inh	Vif TR-FRET	UCH37 inh	HNF4A DNA FP
COc1cc(S(=O)(=O)NCc2ccccn2)c(OC)cc1Cl	0.69	·	·	-1.8	-8%	1.5	-0.3
Cc1cccc(NC(=O)/C(C#N)=C/c2ccc(Cl)cc2)n1	0.68	i	-2.0	?	-13%	-1.3	1.9
O=C(Cn1nc(C(=O)O)c2ccccc2c1=O)Nc1ccccc1C(F)(F)F	0.69	i	-2.7	-2.1	·	4.0	-1.9
CN(C)C(CNC(=O)C1CCCN(C(=O)c2ccc(Cl)cc2)C1)c1ccco1 (stereo unspecified)	0.68	·	·	·	25%	1.1	3.3
O=C(N/N=C/c1cccnc1)c1ccc(NC(=O)c2ccc(Cl)cc2)cc1	·	i	7.2	0.3	·	·	17
Cn1c(C(=O)O)c(S(=O)(=O)c2ccc(Cl)cc2)c2ccccc21	0.69	i	0.4	4.6	-5%	3.3	2.0

Next section:
SMILES	Ecoli growth	FGF22 binding	AF4-AF9 inh	RanGTP-Impb inh	Vif TR-FRET	UCH37 inh	HNF4A DNA FP
Cc1ccc(Nc2c([N+](=O)[O-])c(=O)oc3ccccc23)cc1C	0.62	i	4.5	-1.6	·	2.2	-2.6
Cc1[nH]c2ccccc2c1C(=O)C(=O)N1CCN(C(=O)c2ccco2)CC1	0.68	i	0.9	2.4	-4%	4.3	-1.1
COc1ccc(CNC(=O)CCC(=O)c2ccc(C)cc2)cc1OC	0.69	i	-0.8	2.3	·	7.2	-0.6
COc1ccc(CCc2nnc(N)s2)cc1OC	0.69	i	-2.4	2.9	-3%	4.8	3.4
Cc1ccc(S(=O)(=O)NC2(C(F)(F)F)C(=O)Nc3c2c(=O)n(C)c(=O)n3C)cc1 (stereo unspecified)	0.68	·	·	-0.4	32%	2.2	2.0
O=C(Nc1ccc(Cl)c(Cl)c1)Nc1ccc(Br)cc1F	0.64	·	·	-1.6	13%	-1.6	2.0
COc1ccccc1/C=N/NC(=O)CNC(=O)c1ccc(S(=O)(=O)N(C)C)cc1	·	i	1.9	?	?	·	1.8
N=C(N)c1ccc(O)cc1	0.7	·	-0.9	-0.1	·	4.2	-3.5
Cc1nc2ccccn2c1P(=O)(N1CCCCC1)N1CCCCC1	0.65	·	·	-3.5	?	-0.8	-1.0
Cc1cc(C)c(S(=O)(=O)N2CCN(C(=O)CCn3nc(C)c(C)c3C)CC2)c(C)c1	0.66	i	-0.7	3.0	·	3.6	0.5
CN1CCCC(OC(=O)c2cc(Br)ccc2Cl)C1 (stereo unspecified)	0.73	·	·	-1.0	4%	3.7	0.7
Cc1ccc(C)n1-c1cccc(NC(=O)c2ccccc2)c1	0.71	·	·	0.9	-5%	4.0	29
CN(CC(=O)NCCN1CCCCCC1)S(=O)(=O)c1cccc2nsnc12	0.68	·	·	-3.9	-3%	3.5	-1.6
O=C(c1n[nH]c2ccccc12)N1CCOCC1	0.67	i	0.0	4.6	-10%	2.4	2.5
COc1cccc(NC(=O)N(CCN(C)C)C(C)c2cccnc2)c1 (stereo unspecified)	0.67	i	2.3	0.5	-4%	-0.1	-2.5
CCc1ccc2c(c1)C1(C(=O)N2)N2CCCC2C(C(=O)c2ccc3ccccc3c2)C12C(=O)Nc1ccccc12 (stereo unspecified)	0.67	i	8.4	-7.8	·	1.1	3.4
CCOC(=O)c1nc(N)c(C(=O)OCC)[nH]1	0.74	·	·	2.6	3%	-117	-0.1
Cc1c(N(C)S(=O)(=O)c2cccc(C(=O)NCC3CCCO3)c2)c(=O)n(-c2ccccc2)n1C (stereo unspecified)	0.69	i	-2.1	1.5	-2%	1.8	-1.6
CCOC(=O)C1=C(C)N(C)C(C)=C(C(=O)OCC)C1c1ccsc1	0.72	i	-0.6	-0.8	-1%	-38	2.8
CN(C)C(=O)COC(=O)c1cccnc1Nc1ccccc1F	0.7	i	0.3	-1.9	·	3.1	3.7
O=C(CSc1n[nH]c(-c2ccccc2)n1)N1CCOCC1	0.69	i	-16	-2.3	·	2.4	-3.4
Cc1c(-c2ccccc2)nc(N)c(C#N)c1-c1ccco1	0.7	·	·	·	30%	-50	8.3
CC(=O)Nc1ccc(S(=O)(=O)Nc2cccc(C(=O)Nc3ccccc3C(=O)O)c2)cc1	0.62	i	-3.8	-3.5	·	6.8	1.1
CCCOc1ccc(C(O)C(CN2CCOCC2)c2ccccc2)cc1 (stereo unspecified)	0.69	·	·	-0.3	0%	2.9	-1.6
O=C(/C=C/c1ccc(Cl)cc1)Nc1ccccc1N1CCOCC1	0.76	i	1.5	-0.1	3%	1.1	-1.9
O=C(NCc1ccc(Cl)cc1)C1C2C=CC3(CN(Cc4cccnc4)C(=O)C13)O2 (stereo unspecified)	0.64	i	0.7	0.5	4%	0.9	0.4
Cc1cc(Nc2nnnn2-c2ccccc2)n(-c2ccc(Cl)cc2)n1	0.72	·	·	-5.1	-3%	0.0	2.3
COc1ccc(NC2=CC(c3cccc(OC)c3)N(c3ccc(OC)cc3)C2=O)cc1 (stereo unspecified)	0.73	·	·	0.0	7%	-15	-56
CC(=O)Nc1ccc(S(=O)(=O)NCC2(N3CCOCC3)CCCCC2)cc1	0.64	·	-0.6	·	6%	-0.4	-1.2
Cc1cc(C)nc(SCC(=O)Nc2ccc(Br)cn2)n1	0.74	·	·	7.6	-4%	4.4	2.7
CC1CCN(C(C(=O)NC2CCCCC2)c2cc3c(cc2[N+](=O)[O-])OCO3)CC1 (stereo unspecified)	0.67	i	5.4	-1.0	15%	0.0	-1.3
COc1ccc(CSCC(=O)NCCC(C)C)cc1	0.64	·	-0.2	-2.0	1%	0.7	0.0
CCCCCCN1CC(C(=O)OCC)C(=O)C1=O (stereo unspecified)	0.64	·	·	0.4	·	3.4	1.7
COC(=O)C(C)Sc1ccc2nnc(-c3ccccc3)n2n1 (stereo unspecified)	0.73	i	2.1	-0.6	26%	-5.4	4.5
Cn1cnc(S(=O)(=O)N2CCCCC2c2cc(C(=O)NCc3ccc(F)cc3)no2)c1 (stereo unspecified)	·	i	1.8	·	·	·	2.6
O=C1NC(=S)N(c2cccc(Cl)c2)C12CCCCC2	0.74	i	2.8	-4.4	-1%	3.8	3.2
CC(=O)C1=C(O)C(=O)N(c2ccc(C)cc2)C1c1ccccn1 (stereo unspecified)	0.75	·	·	-1.0	-4%	4.0	-0.5
CCCn1c(N)c(C(=O)CSc2nnc(C)n2Cc2ccccc2)c(=O)n(C)c1=O	0.68	·	·	3.1	2%	1.2	-4.5
COCCNC(=O)C1CCCN(c2ncccn2)C1 (stereo unspecified)	0.66	·	·	3.4	0%	-5.5	5.8
Cc1cc(C)c(C(=O)Cn2nc(C(=O)O)c3ccccc3c2=O)cc1C	0.7	i	6.2	1.7	·	2.4	0.4
Cc1ccc(S(=O)(=O)Nc2ccc3cn[nH]c3c2)cc1	·	i	0.0	·	1%	·	-0.2
CN(C)S(=O)(=O)c1cccc(NC(=O)COC(=O)c2cc(-c3cccc(Br)c3)nc3ccccc23)c1	0.74	·	·	-6.2	30%	-3.7	2.5
O=C(CCc1ccccc1)Nc1ccc(NC(=O)c2ccco2)cc1	0.67	i	-2.0	-0.8	2%	1.1	3.5
CCN1/C(=C/c2cccc[n+]2C)Sc2ccc(OC)cc21	·	i	1.8	-0.1	·	·	2.5
Cc1ccccc1-c1nn(-c2ccccc2)cc1C(=O)NCC(c1ccco1)N1CCCC1 (stereo unspecified)	0.69	i	-0.4	·	-2%	-1.1	0.8
Cc1nc2ccc(NS(=O)(=O)c3cccc([N+](=O)[O-])c3)cc2s1	0.68	i	1.1	·	-2%	1.6	3.2
COc1cccc(C2c3c(-c4cc(Cl)c(C)cc4O)n[nH]c3C(=O)N2Cc2cccnc2)c1 (stereo unspecified)	0.74	·	·	6.8	10%	4.0	-1.9
CCn1c(SCc2ccc(C(=O)OC)o2)nc2sc3c(c2c1=O)CCCC3	0.7	·	·	5.6	10%	0.4	0.4
Cc1ccc(NC(=O)Nc2ccc([N+](=O)[O-])cc2)nc1	0.7	i	2.5	?	2%	6.1	0.7
CCC1CN(C(=O)N2CCC(C(=O)NCc3ccccc3C)CC2)c2ccccc2O1 (stereo unspecified)	0.69	i	0.3	-3.5	·	4.6	-0.3
COc1ccc(C(=O)/C=C2\C(=O)Nc3ccc(Br)cc32)cc1	·	i	2.2	·	-6%	·	-0.1
O=C(/C=C/Nc1ccc(Br)cn1)c1cccc(OC(F)F)c1	0.7	i	-1.3	·	-7%	4.1	-0.1
C=CCSC(=S)Nc1c(C)n(C)n(-c2ccccc2)c1=O	0.71	i	-3.3	-1.3	·	1.9	2.0
Fc1cccc(CSc2nc3ncccc3[nH]2)c1	0.57	·	·	-1.2	-4%	2.7	2.3
O=C(Nc1nccs1)C(c1ccccc1)N1CCCCC1 (stereo unspecified)	0.68	i	-0.2	-4.2	-5%	1.0	2.5
CC(C)C[C@H](NC(=O)c1nc[nH]c1C(=O)N[C@@H](CC(C)C)C(=O)OC(C)(C)C)C(=O)OC(C)(C)C	·	i	5.4	-7.2	1%	1.5	-1.6
Cc1ccc(NC(=O)c2ccc(=O)[nH]c2)cc1S(=O)(=O)N1CCCCCC1	0.73	i	3.8	·	-4%	5.8	0.3
O=C(NCC(O)c1ccc([N+](=O)[O-])cc1)c1cccc(S(=O)(=O)N2CCCC2)c1 (stereo unspecified)	0.68	i	-0.4	-2.0	0%	3.0	4.7
O=C(CSCc1ccccc1Br)N/N=C/c1ccccc1C(=O)O	·	i	-0.6	0.7	-9%	·	-1.7

This is a subset, so the mix of outcomes need not match the whole.
